Assay outcomes from PubChem.
Calb biofilm kill: mixtures killing C. albicans biofilm | C. albicans biofilm persisters + clotrimazole, fluorescence viability; primary screen in compound mixtures of four per well | 120,000 compounds, 0.02% hits | inhibition, % at 7.6 µM;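 active = inhibition above 30.3% in the primary screen of four-compound pools, then above 30% when the compound was retested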;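 note: compounds exposed to preformed 24 h biofilms for 48 h; the number belongs to the whole pool; some results filed as inactive read as strong as hits; inactives centre near 12; 0% = biofilm with clotrimazole alone and 100% = kill control; retested singly at about 60 µM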
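Incubation: 24 h biofilm formation, then 48 h compound exposure, 37 °C | Material: C. albicans biofilms | Buffer or medium: RPMI/MOPS medium, pH 7.0 | Measured by: 2-h Alamar Blue fluorescence, 535/590 nm excitation/emission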
Active calls of the source: *.

Structure	Calb biofilm kill
O=C(NCc1cccnc1)C(=O)NCC1OCCN1S(=O)(=O)c1ccc(Cl)cc1 (configuration not stated)	17
CN(C)CCOc1cc(Cl)cc(Cl)c1	15
CCCCn1c(N)c(N(CC)C(=O)C(c2ccccc2)c2ccccc2)c(=O)[nH]c1=O	-6
COc1ccc(NC(=O)CC2C(=O)N(c3ccc(F)cc3)C(=S)N2NC(=O)c2ccc(Cl)cc2)cc1 (configuration not stated)	2
O=C(O)COc1ccccc1-c1ccccc1	26
Cc1ccc(-c2nnc(SCC(=O)NNC(=O)COc3cccc4ccccc34)n2C)cc1	8
CCOC(=O)C1CCCN(Cc2cc(=O)oc3cc(C)c(C(C)C)cc23)C1 (configuration not stated)	9
O=C(NNc1c(Cl)cccc1Cl)c1cccs1	22
CCC[N+](CC#Cc1ccccc1)(CCC)CC(=O)OCC	9
COc1ccc(C(=O)NCc2nnc(SCC(=O)Nc3nc4ccccc4s3)o2)cc1OC	11
Cn1c(-c2sccc2OCc2ccc(Cl)cc2Cl)n[nH]c1=S	21
O=C(NCCc1ccccc1)c1cccc(N2C(=O)C3CC=CCC3C2=O)c1 (configuration not stated)	10
CCOc1ccc(NC(=S)N2CCC(N(C)CC3CCCO3)CC2)cc1 (configuration not stated)	14
Cc1cccc(N/N=C(\C(N)=O)C2=NC(C)(C)Cc3ccccc32)c1	4
Clc1ccc(-c2csc(-c3ccno3)n2)cc1	16
CCC(=O)N(CCC(Cc1ccccc1)c1ccco1)Cc1ccco1 (configuration not stated)	25
O=C(N/N=C/c1cc([N+](=O)[O-])ccc1O)c1cccc2cc[nH]c12	10
CC(C)(C)NC(=O)CN(C(=O)CS(=O)CC(=O)Nc1ccc(F)cc1)c1ccccc1F (configuration not stated)	-6
Cn1nc(-c2ccccc2)cc1NC(=O)Nc1ccc(C(C)(C)C)cc1	14
Cc1ccc(NC(=O)CCCCCCCCCCC2COCCO2)c(C)c1 (configuration not stated)	-12
CC(C)[C@H](NS(=O)(=O)c1ccc2c(c1)OCCO2)C(=O)OCC(=O)Nc1ccccc1	-4
Cc1ccc(S(=O)(=O)N2CCN(c3ccc(C(F)(F)F)cc3[N+](=O)[O-])CC2)cc1	18
COc1ccc(OC)c(CN(CCCN2CCOCC2)C(=O)Nc2ccccc2)c1	13
O=C1N/C(=C\c2ccccc2)C(O)=C1C=NCc1ccccc1	14
COC(=O)Oc1ccc(/C=N/NC(=O)CSCc2ccc(Cl)cc2)cc1OC	14

The final 2 compounds of the part above come first, to join the parts.
Structure	Calb biofilm kill
O=C1N/C(=C\c2ccccc2)C(O)=C1C=NCc1ccccc1	14
COC(=O)Oc1ccc(/C=N/NC(=O)CSCc2ccc(Cl)cc2)cc1OC	14
Fc1ccc(F)c(C2=NNC(=NCC3CCCO3)SC2)c1 (configuration not stated)	13
CCCCC(CC)C(=O)Nc1ncc([N+](=O)[O-])s1 (configuration not stated)	4
O=C(COc1ccccc1[N+](=O)[O-])OCC(=O)N1CCC(Cc2ccccc2)CC1	4
Cc1ccc(NC(=O)CN(C)CC(=O)Nc2ccc(F)c(F)c2F)c(Cl)c1	14
O=C(CC1C(=O)NCCN1C(=S)Nc1ccccc1)Nc1ccc(F)cc1 (configuration not stated)	12
COc1ccccc1/C=N/NC(=O)c1cccc(NC(=O)c2ccccc2Cl)c1	0
Cn1cc(S(=O)(=O)CC(=O)Nc2ccc3c(c2)OCO3)c2ccccc21	7
O=C(CN1CCCc2ccccc21)NCc1ccc2c(c1)OCO2	7
N#Cc1cnc2ncnn2c1-c1ccccc1	19
O=C(O)CSC1=NC(=Nc2cccc(Cl)c2)C2(CCCCC2)N1c1ccccc1	6
O=C(NC(=S)Nc1ccc(CN2CCOCC2)cc1)c1ccc([N+](=O)[O-])cc1	14
COc1ccccc1CNC(=O)c1csc2c1CCCC2	13
COC(=O)/C(C#N)=C1/C=Cc2ccccc2N1C	9
COC(=O)c1sccc1NC(=S)N1CCN(c2ccccc2)CC1	16
COc1ccc(OCC(=O)N2N=C(C)CC2(O)C(F)(F)F)cc1 (configuration not stated)	10
O=C(CSc1cc([N+](=O)[O-])cc(S(=O)(=O)Cc2ccccc2)c1)NC1CC1	3
C/C(=N/NS(=O)(=O)c1ccc(Br)cc1)c1ccc(C)o1	1
S=C(Nc1ccccc1Cl)N(Cc1ccccc1)Cc1cccnc1	16
Cc1noc2ncnc(Oc3ccccc3Cl)c12	9
Cc1cccc(-n2c(SCC(=O)N3CCCC3)nc3n[nH]c(C)c3c2=N)c1	18
CC(C)(C)C(=O)Nc1ccccc1C(=O)NCc1cccnc1	14
Cc1ccc(OCC(=O)O/N=C(\N)c2cccnc2)cc1	4
CC1(OC(=O)C2CCCC2)C(=O)C=C2C=C(c3ccsc3)N(C3CCCC3)C=C2C1=O (configuration not stated)	3
COc1ccc(NC(=O)CSc2nnc(CNC(=O)COc3ccc(Cl)cc3)o2)cc1	17
Cc1ccc(SCCC(=O)NCCSCc2ccco2)cc1	2
COc1ccc2c(c1)CC/C2=N\OC(=O)c1ccccc1OC	5
CC(=O)c1cn(Cc2ccccc2)c(=O)[nH]c1=O	9
Cc1cc(C)nc(SCc2n[nH]c(=S)n2C)n1	19
CCSc1nnc(NC(=O)[C@@H](NC(=O)c2cc(OC)cc(OC)c2)C(C)C)s1	15
CCc1nnc(NC(=O)CSc2nccn2-c2ccccc2)s1	14
O=C(NCCCO)C(=O)NCc1ccncc1	9
CNC(=S)N(CCc1c(C)[nH]c2ccc(C)cc12)Cc1cc(OC)c(OC)c(OC)c1	15
O=C(COC(=O)c1ccccc1NS(=O)(=O)c1cccs1)NCC12CC3CC(CC(C3)C1)C2	-2
COc1ccc(N2CCN(CCC3Oc4cc([N+](=O)[O-])ccc4NC3=O)CC2)cc1 (configuration not stated)	10
Cc1nc2ccc(S(=O)(=O)NCC(=O)Nc3cccc(F)c3)cc2s1	17
Cc1ccc(N2CC(C(=O)NCc3ccc(C)n3C)CC2=O)cc1 (configuration not stated)	12
Cn1c(SCc2ccc([N+](=O)[O-])cc2)nc2c(c1=O)SCC2	-12
COc1ccc(CN2C(=O)c3ccccc3C2C(=O)NC2CCCCCC2)c(OC)c1 (configuration not stated)	36
CCOc1ccc(NC(=S)NCCN2CCN(Cc3ccccc3)CC2)cc1	39
Cc1nc(-c2nnc(-c3ccccc3)o2)c(C(F)(F)F)o1	20
CCCN(CC(=O)Nc1ccc(C(N)=O)cc1)CC(=O)Nc1ccc(Cl)cc1Cl	5
O=C(O)C12CC3CC(C1)CC(n1ncc(NCc4ccco4)c(Cl)c1=O)(C3)C2	21
Cc1ccsc1-c1nc(CN2CCCC2c2ccc(F)cc2)c(C)o1 (configuration not stated)	0
NC(=O)N[C@@H](Cc1c[nH]c2ccccc12)C(=O)OCC(=O)N1CCCCC1	11
CC1CC(C)(C)NC(=S)N1CCC(=O)N1CCc2ccccc2C1 (configuration not stated)	5
CSCC[C@H](NC(=O)Nc1cccc(Br)c1)C(=O)O	24
O=[N+]([O-])c1ccc(CN2CCCCCC2)s1	18
COc1ccc(/C=N/NC(=O)CNC(=O)c2ccc3c(c2)OCCO3)cc1OC	21
CC(C)N(CCC#N)C(=O)Nc1ccc2c(c1)CCO2	18
CC(C)CN(C(=O)C(c1ccccc1)c1ccccc1)c1c(N)n(CC(C)C)c(=O)[nH]c1=O	10

More compounds
Structure	Calb biofilm kill
c1ccc(-c2nnc(-c3ccccn3)s2)nc1	10
COc1ccc(/C=C/C(=O)Nc2ccc(C)cc2)cc1S(=O)(=O)N1CCOCC1	20
COc1cc(OC)c(C2=NOC(C(=O)Nc3ccc4c(c3)OCO4)C2)cc1Cl (configuration not stated)	15
COc1ccccc1/C=C\C=N\NC(=O)c1ccco1	22
CC(CC(=O)NCc1cccnc1)c1ccccc1 (configuration not stated)	9
O=S(=O)(c1cccs1)N1CN(Cc2ccco2)c2nc3ccccc3nc21	26
COc1ccc(NC(=O)Nc2nnc(N3CCC(C)CC3)s2)cc1OC	15
Cc1[nH]c2ccccc2c1C(=O)COC(=O)CCS(=O)(=O)c1ccccc1Cl	9
COc1cc(OC)c(OC)cc1/C=N/n1c(-c2n[nH]c3c2CCC3)n[nH]c1=S	18
Cc1ccc(CNC(=O)c2ccc[nH]2)cc1	18
COc1cccc(CN(Cc2ccco2)S(=O)(=O)c2ccc(S(=O)(=O)NCc3ccccc3)cc2)c1OC	17
Cc1no[n+]([O-])c1COc1ccc(/C=C(\C#N)C(N)=O)cc1	18
COc1ccc(Oc2ccc(N/C=C3/CCCC3=O)cc2)cc1	11
Cc1cccc(-n2nnnc2SCC(=O)N(CC(C)C)c2c(N)n(CC(C)C)c(=O)[nH]c2=O)c1	16
Cc1ccc(CSc2nn3c(=O)c(C)nnc3s2)cc1	14
COc1ccc(-n2c(SCC(=O)Nc3cc(C)on3)nc3ccccc3c2=O)cc1Cl	6
O=C(COC(=O)c1nc(Cl)ccc1Cl)c1ccc(Cl)s1	10
O=[n+]1cc(-c2ccc(Cl)cc2)n([O-])c2c1CCC2	11
CCN(CC)S(=O)(=O)c1cccc(C(=O)Oc2cccc(NC(=O)c3cccs3)c2)c1	8
COc1cccc(NC(=S)NC2CC3CCCC(C2)N3CC(C)C)c1 (configuration not stated)	4
CC(C)(C)[C@H]1C=C(C(=O)N2CCOCC2)O[C@@H](OCc2ccc(CO)cc2)C1	15
Cc1ccc(CNC(=O)CSc2nc3c(sc4ccccc43)c(=O)n2CCCN2CCCC2)cc1	9
O=C(/C(=C/O)N=Nc1ccccc1)c1ccc(Cl)cc1	7
CCO[C@@H]1OC(C(=O)N2CCOCC2)=C[C@H](c2cn(C(C)=O)c3ccccc23)[C@H]1CCCO	14
Cc1ccc(NC(=O)N2CCN(c3ncccc3C(F)(F)F)CC2)cc1	22

Among those listed so far, these contain bromine.
Structure	Calb biofilm kill
C/C(=N/NS(=O)(=O)c1ccc(Br)cc1)c1ccc(C)o1	1
CSCC[C@H](NC(=O)Nc1cccc(Br)c1)C(=O)O	24

3 of the compounds above, as labelled records.
> COc1cccc(NC(=S)NC2CC3CCCC(C2)N3CC(C)C)c1 (configuration not stated)
  Calb biofilm kill = 4
> CC(C)(C)[C@H]1C=C(C(=O)N2CCOCC2)O[C@@H](OCc2ccc(CO)cc2)C1
  Calb biofilm kill = 15
> Cc1ccc(CNC(=O)CSc2nc3c(sc4ccccc43)c(=O)n2CCCN2CCCC2)cc1
  Calb biofilm kill = 9

(further entries)
Structure	Calb biofilm kill
CCN(CC)CCNC(=O)C(=O)NCC1OCCN1S(=O)(=O)c1ccc([N+](=O)[O-])cc1 (configuration not stated)	5
S=C(Nc1ccccc1Cl)NC1CCCCCC1	12
Cn1cc(CN2CC3C[C@@H]4CC2C[C@H](C3)C4)c(-c2ccc3c(c2)OCCO3)n1	15
O=C(O)CCC(=O)Nc1ccccc1Oc1ccccc1	10
CC(=O)c1c(C(C)=O)c(C)n(-c2cccc([N+](=O)[O-])c2)c1C	14
Cc1ccc(OCCn2cc(/C=C(\C#N)C(=O)NCC3CCCO3)c3ccccc32)cc1C (configuration not stated)	9
CC(C)[C@H](NC(=O)NC1CCN(Cc2ccccc2)CC1)C(=O)O	8
Cc1ccc2c(c1)c1c(n2CC(O)Cn2ccnc2C)C(=O)CCC1 (configuration not stated)	2
Cc1ccccc1C(=O)Nc1ccc(C(=O)N/N=C/c2ccc(F)cc2)cc1	3
CCOC(=O)c1c(N)sc(C(=O)N(CC)CC)c1C	17
Cn1cc(/C=N/NC(=O)c2ccc(C#N)cc2F)c2ccccc21	19
CCn1c(=O)c(C(=O)CN2CCN(S(=O)(=O)c3cc(C)ccc3C)CC2)c(N)n(Cc2ccccc2)c1=O	11
OCCNc1ncnc2c1sc1nc(N3CCOCC3)c3c(c12)CCC3	13
Cc1nn(-c2ccc(F)cc2)c(C)c1CN1CCN(CCc2ccccc2)C(CCO)C1 (configuration not stated)	11
NC(=O)c1c(NC(=S)Nc2ccc(F)cc2)sc2c1CCCC2	-12
Cc1cc(C)nc(SC(C)CNS(=O)(=O)c2ccccc2)n1 (configuration not stated)	16
CCOc1ccc(NC(=O)NCc2ccco2)cc1	15
CC(NC(=S)NNS(=O)(=O)c1ccc(C(C)(C)C)cc1)c1ccccc1 (configuration not stated)	31
CCCN(CCC)C(=O)CC(c1ccccc1)c1ccco1 (configuration not stated)	9
Cc1ccccc1OCC(O)CN1CCN(CCN2C(=O)c3cccc4cccc(c34)C2=O)CC1 (configuration not stated)	1
O=C(COc1ccc(Br)cc1)Nc1cc(S(=O)(=O)N2CCCCC2)ccc1N1CCCCC1	19
O=C(CSCc1ccc(Cl)c(Cl)c1)Nc1c[nH]c(=O)[nH]c1=O	10
Cc1ccc(F)cc1NCC(=O)Nc1ccc(Cl)cc1F	12
Cc1ccc(N2C(=O)C3C4C=CC(CNC(=S)Nc5ccc(F)cc5)(O4)C3C2=O)cc1 (configuration not stated)	10
COc1c(Cl)cnn(-c2ccccc2)c1=O	19
COc1ccc(C)cc1-n1nnnc1SCc1nc2ccccc2c(=O)[nH]1	2

Some of the compounds tested; count on the stated rates, not on these rows.
